Six1-Eya2 inh = blocks human Six1 binding to Eya2; activity change, % (no concentration beside the values); AID 651725; Q15475+O00167; AlphaScreen GST-Six1/His-Eya2 binding, biochemical; hits give low values; control for the full effect not named in the record; actives 0.56% (n = 360,000); in the data active = activity change below about -65%; inconclusive = about -30% to -65%; inactive = above about -30%; also: % is scaled to controls: 0 for no effect and ±100 for the full control effect; compound concentration not given in the record
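AlphaScreen with GST-Six1 and His-Eya2 (5X mix: 250 nM and 500 nM), glutathione donor and nickel acceptor beads; buffer 50 mM Tris pH 8.0, 300 mM NaCl, 1 mM TCEP; 1 h at 37 C in the dark.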
PINK1 expr mod = modulators of PINK1 expression; actives 0.2% (n = 410,000); Potency, µM (titrated, usually from 76.6 µM), inactives show at the highest dose activation (PINK1 increase), usual class: activators; PINK1 immunofluorescence, high-content cytometry, 24 h; active = well fitted activation curve with a large enough effect; inconclusive = small, poorly fitted or top-dose-only effect; inactive = flat fitted curve, though single readings scatter; cell line not stated here;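 also: potency is read from the fitted curve at half-maximal effect; % of control where 0% means no effect; nearly all actives have a fitted effect of over 65% in size; a mitochondrial uncoupler was the plate control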
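Fluorescence from anti-PINK1 antibody, together with nuclear and cell stains, was scanned on a laser-scanning cytometer. Before staining, stable-line cells were incubated 24 hours with compounds at 5 concentrations; primary antibody 12 h at 10 degrees C.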
D2 ag = agonists of human D2 dopamine receptor (beta-arrestin); P14416; DiscoveRx PathHunter D2 beta-arrestin, luminescence, 90 min; 100% = 57 uM dopamine signal; activation, % (test concentration not listed); actives 0.084% (n = 360,000); in the data active = activation above about 40%; inconclusive = about 15% to 40%; inactive = below about 15%; also: compound concentration not given in the record; the text of the record calls up to 30% inactive
Target sequence (P14416 whole entry, looked up): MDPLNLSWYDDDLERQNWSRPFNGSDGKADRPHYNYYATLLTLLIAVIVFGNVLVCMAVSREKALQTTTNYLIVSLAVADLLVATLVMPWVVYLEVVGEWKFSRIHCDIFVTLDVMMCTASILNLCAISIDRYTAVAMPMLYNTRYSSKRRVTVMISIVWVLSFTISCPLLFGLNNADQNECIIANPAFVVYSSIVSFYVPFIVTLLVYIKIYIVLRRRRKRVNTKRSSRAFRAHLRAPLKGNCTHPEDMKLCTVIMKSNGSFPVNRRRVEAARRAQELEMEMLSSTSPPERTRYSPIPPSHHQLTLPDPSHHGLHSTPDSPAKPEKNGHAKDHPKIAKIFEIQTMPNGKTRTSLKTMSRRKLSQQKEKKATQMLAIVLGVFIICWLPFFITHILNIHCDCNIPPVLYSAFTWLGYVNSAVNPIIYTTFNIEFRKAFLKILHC
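DiscoveRx PathHunter D2 beta-arrestin cells (2,100/well) attached overnight, then compound-stimulated 90 min at 37 C in HBSS/10 mM HEPES/0.1% Tween-20 buffer; beta-galactosidase complementation read by luminescence after 1 h at ambient temperature. Dopamine 57 uM final (EC100) as control.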
TRPML1 inh = human mucolipin-1 channel inhibition | TRPML1-inducible cells, Ca2+ dye fluorescence, FDSS; hits give low values; inhibition of EC80 agonist-evoked calcium signal | AID 624415 | Q9GZU1 | activity change, negative = inhibition, % (concentration not given with the values) | actives 0.02% (n = 390,000); in the data active means activity change below about -50%; inconclusive means about -30% to -50%; inactive means above about -30%;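 also: stimulus is agonist 54-4 at its EC80 concentration; % is scaled to controls: 0 for no effect and ±100 for the full control effect; compound concentration not given in the record; the text of the record puts the active cut at -80%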
Target sequence (Q9GZU1 whole entry, looked up): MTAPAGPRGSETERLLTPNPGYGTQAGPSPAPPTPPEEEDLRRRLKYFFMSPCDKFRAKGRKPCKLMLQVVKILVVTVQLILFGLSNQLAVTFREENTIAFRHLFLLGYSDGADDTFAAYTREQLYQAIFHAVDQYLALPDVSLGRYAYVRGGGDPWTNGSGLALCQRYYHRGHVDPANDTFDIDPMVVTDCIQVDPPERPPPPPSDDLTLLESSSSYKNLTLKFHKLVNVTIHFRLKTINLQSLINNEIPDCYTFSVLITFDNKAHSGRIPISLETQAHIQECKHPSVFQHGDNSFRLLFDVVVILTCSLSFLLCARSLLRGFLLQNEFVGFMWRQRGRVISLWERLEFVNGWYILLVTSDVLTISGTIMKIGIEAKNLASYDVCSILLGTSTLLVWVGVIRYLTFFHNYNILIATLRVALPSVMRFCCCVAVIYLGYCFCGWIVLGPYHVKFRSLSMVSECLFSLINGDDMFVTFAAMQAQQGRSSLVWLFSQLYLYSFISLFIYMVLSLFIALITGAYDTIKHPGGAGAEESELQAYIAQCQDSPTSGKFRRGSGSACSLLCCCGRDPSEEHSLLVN
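Tet-induced TRPML1-DL cells loaded with Ca8 no-wash calcium dye were read kinetically on FDSS. Compound addition was followed by EC80 agonist 54-4 (4 uM final); inhibition was read over 110 s.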
TRPML1 ag = agonists of human TRPML1 channel; actives 0.12% (n = 410,000); AID 624414; TRPML1-expressing cells, Ca2+ dye fluorescence, FDSS; host cell line not named in the record; reference of the full effect not given here; activation, % (test concentration not listed); in the data active = activation above about 50%; inconclusive = about 30% to 50%; inactive = below about 30%; also: 0% is about no effect; the text of the record puts the active cut at 80%
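Calcium fluorescence on an FDSS kinetic reader gave the read-out. Tet-induced TRPML1-DL cells were plated overnight, dye-loaded (Ca8 with quencher, 45-90 min, room temperature, dark), then read 110 s after compound addition, and again 110 s after 4uM final 54-4 (EC80).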
D2 potentiator = human D2 receptor positive allosteric modulation | DiscoveRx D2 beta-arrestin cells, luminescence, 90 min; 100% = 57 uM dopamine signal | potentiation, % (no concentration beside the values) | actives 0.23% (n = 360,000) | AID 624464; active = potentiation of 50% or more; inconclusive = 30% to 50%; inactive = 30% or less;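 also: compound concentration not given in the record; tested on top of an EC20 dose of dopamine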
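PathHunter D2 cells, attached overnight at 37 deg C, received compound in DMSO plus dopamine at EC20 (50 nM final) for 90 min at 37 deg C. Beta-arrestin recruitment was read as luminescence after 1 h with detection reagent at ambient temperature.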
An asterisk follows results filed as active; ? = inconclusive; . = not tested or not shown; & = joins results of further samples; [ ] = dose if it differs, or a comment.

SMILES	Six1-Eya2 inh	PINK1 expr mod	D2 ag	TRPML1 inh	TRPML1 ag	D2 potentiator
Cc1nnc(N(Cc2ccco2)C(=O)c2ccc(C#N)cc2)s1	-6.3	-2.0%	0.1	-0.5	-0.3	-7.9
Cc1ccc(N2CC(C(=O)Nc3ccc(S(=O)(=O)N4CCOCC4)cc3)CC2=O)cc1 (stereo unspecified)	-0.6	4.3%[38.3 µM]	-0.8	-19.1	1.7	-2.2
COc1ccc(NS(=O)(=O)c2ccc(C)c(NC(=O)CNC(=O)c3ccco3)c2)cc1	0.4	2.2%	-1.4	-6.3	-1.2	-3.2
O/N=C/c1nc2cc(Cl)ccc2o1	10.4	0.1%	-3.7	-13.2	-0.6	7.5
O=C(Cn1nc(C(F)(F)F)c2c1CCC2)NCc1ccc(Cl)cc1	-1.1	5.4%	-1.3	-17.2	0.0	-15.6
CC(C)(O[C@@H]1O[C@H](CO)[C@@H](O)[C@H](O)[C@H]1O)[C@H]1Cc2cc3ccc(=O)oc3cc2O1	3.9	2.3%	-3.9	6.9	3.3	-4.9
Cc1nn(C)c(C(=O)Nc2c(C)nn(Cc3c(F)c(F)c(F)c(F)c3F)c2C)c1Br	6.6	-0.2%	-8.8	2.0	0.9	3.9
COc1ccc(NC(=O)Nc2nnc(N3CCCC3)s2)cc1	.	-0.3%	.	34.0	0.0	.
N=C1C(=O)OCC1c1ccccc1NC(=O)CN1CCOCC1 (stereo unspecified)	-5.5	4.1%	-1.3	13.7	0.6	-5.9
CC(C(=O)NCCSCc1cccc(Cl)c1)N(c1ccccc1)S(C)(=O)=O (stereo unspecified)	-6.8	2.2%&0.8%	0.4	14.4&3.2	0.0&-0.7	-6.1
COc1ccc(OC)c(/C=N/NC(=O)CNC(=O)c2ccc(S(=O)(=O)N3CCCC3)cc2)c1	-2.3	1.6%	-4.8	-12.5	0.3	-4.0
CCOC(=O)C1CCN(c2c(NCc3ccc(C(=O)NC(C)CC)cc3)c(=O)c2=O)CC1 (stereo unspecified)	-2.1	0.8%	0.5	0.5	-0.5	1.2
Cc1cc(NC(=O)CSCC(=O)N(C)Cc2ccc(F)cc2)no1	4.4	1.2%	-0.2	-1.7	-0.3	-18.3
CCN1C(=O)C2(C(C#N)=C(N)Oc3n[nH]c(-c4ccc(Cl)cc4)c32)c2ccccc21 (stereo unspecified)	-1.1	-0.1%	2.7	-0.3	-1.0	19.7
Cc1cc(NC(=O)CCC(=O)N(Cc2ccco2)C(C(=O)NC2CCCC2)c2ccc(F)cc2)no1 (stereo unspecified)	-2.0	-0.8%	5.2	-12.1	-0.1	-5.2
Cc1ccc(C(=O)Nc2ccc3c(c2)CCC3)o1	-1.7	1.5%[38.3 µM]	-0.8	1.1	1.5	-9.2
Cc1ccc(C)c2nc(N3CCCC3)c(C#N)cc12	47.7	1.9%	-2.0	-0.7	1.0	-13.1
COc1ccc(N/C(N)=N/c2nc(CSc3ccc(Cl)cc3)cc(=O)[nH]2)cc1	-2.6	?	0.8	-7.6	0.9	3.2
NS(=O)(=O)c1cccc(NC(=O)c2ccc(NS(=O)(=O)c3cccc([N+](=O)[O-])c3)cc2)c1	11.2	-0.4%	-3.4	-13.4	0.3	-22.5
Cc1ccc(CCNC(=O)c2cc3sccc3n2Cc2ccc(F)cc2)cc1	.	6.5%	.	37.2	0.8	.
CC(C)Nc1nc(-c2ccccc2CO)c2sccc2n1	4.2	0.8%	7.5	.	-1.1	-10.5
COc1ccc(C(=O)N2CCOC2CNC(=O)C(=O)NCc2ccccc2Cl)cc1 (stereo unspecified)	-0.3	-0.4%	-1.5	13.6	-0.1	5.2
O=C(OCc1c(F)cccc1Cl)c1cccc(S(=O)(=O)N2CCOCC2)c1	2.3	2.0%	-2.0	45.9	-0.7	-8.1
N/C(COc1ccc(Cl)cc1)=N\NS(=O)(=O)c1ccccc1	1.0	-3.8%	1.1	-10.2	-0.4	-5.9
CCOC(=O)c1ccc(S(=O)(=O)Nc2cc(S(=O)(=O)N3CCOCC3)ccc2O)cc1	0.0	2.4%	3.7	22.0	1.8	2.8
COc1ccc(C(=O)Nn2c(CCC(=O)O)ccc2-c2ccc(C)cc2)cc1OC	-2.0	1.3%	-4.1	29.1	-0.6	-9.2
Cc1csc(CN(C)C(=O)CC2C(=O)NCCN2Cc2ccc(F)c(F)c2)n1 (stereo unspecified)	3.7	-2.7%	-0.3	-13.6	0.7	14.2
O=C(NCCC1=CCCCC1)c1cnc2n(c1=O)CCS2	3.2	2.0%[38.3 µM]	-3.6	4.6	0.4	-2.0
CCOC(=O)/C(C#N)=C1\C=CN(C)C(C)=N1	-0.2	-1.8%	-1.4	51.3	-0.2	9.5
COc1ccc(C(C)NC(=O)Cc2cccs2)cc1OC (stereo unspecified)	-5.9	0.0%	2.6	-12.9	-0.3	-3.9
CN1C(=O)C(c2nnc(Nc3cccc4ccccc34)s2)C2CC1(C)Oc1ccccc12 (stereo unspecified)	-10.5	-1.2%	0.2	16.5	-0.2	-1.6
Brc1ccc(CNCCCSc2ncccn2)cc1	-8.6	0.9%	-3.7	1.8	-0.3	-5.6
O=C1c2ccccc2-c2onc3c(Br)cc(NC4CCCCC4)c1c23	.	1.8%	.	-7.9	3.1	.
CCOc1ccc(S(=O)(=O)N2CCCC(C(=O)N3CCCC3)C2)cc1 (stereo unspecified)	3.7	1.4%	-4.5	-7.8	0.2	-10.5
CCc1ccc(N2C(=O)C3CCCN3C2=S)cc1 (stereo unspecified)	6.9	23.4%	-1.4	0.2	-0.7	2.3
CC(C)(C)C1CCc2c(C(=O)N/N=C/c3cccs3)csc2C1 (stereo unspecified)	-3.2	13.7%[38.3 µM]	-0.9	12.2	1.9	1.0
CC(C)CCNC(=O)c1cn(C)c2ccc(S(=O)(=O)N3CCOCC3)cc2c1=O	.	1.0%	.	-0.5	0.4	.
Cn1c(C(=O)N2CCC(C(=O)NCc3ccccc3)CC2)cc2sccc21	-6.7	0.8%	4.8	8.8	0.7	-2.5
N#CC1=C(N)Oc2cc(O)c(Cl)cc2C1c1cccnc1 (stereo unspecified)	-5.3	0.2%	4.3	-12.1	?	-5.0
O=C(CCCC(=O)OCC(Cl)=C(Cl)Cl)Nc1cccc(F)c1	11.1	-1.1%	0.6	4.9	1.0	-2.3
CC(C)n1c(C(F)(F)F)nc2cc(C(=O)N3CCOCC3)ccc21	2.0	0.0%	-0.6	-1.6	-0.3	-1.5
CCCCn1c(-c2ccsc2)nc2c1c(=O)[nH]c(=O)n2CCC	1.4	9.5%	-4.0	10.8	0.3	-3.8
CC(C)CNS(=O)(=O)c1ccc2c(c1)OCCO2	4.5	-3.6%	0.4	-12.2	-1.4	2.4
CCCCNc1nc(=S)n(-c2ccccc2)c(C)c1C(C)=O	0.0	-3.0%	1.0	1.8	-0.7	-13.2
COC(=O)CCCCCC(CCC(=O)OC)NC(C)=O (stereo unspecified)	-2.9	0.8%	-3.7	1.0	-0.6	-12.2
Cc1noc(C)c1S(=O)(=O)N(CC(=O)Nc1ccc(C(F)(F)F)cc1)c1ccc(C(C)C)cc1	.	4.4%	.	5.7	-0.1	.
CC(=O)NC(Cc1ccc(C)cc1)C(=O)NC1CCN(S(=O)(=O)c2ccccc2)CC1 (stereo unspecified)	8.6	0.7%	-11.4	17.2	5.8	-4.8
COc1ccc(-c2nc(-c3cccs3)c(-c3cccs3)[nH]2)cc1OC	?	-0.1%	-1.9	12.5	-0.7	-13.0
NC(CO)c1csc(Nc2ccc(C(=O)c3ccccc3)cc2)n1 (stereo unspecified)	-11.5	0.9%	-4.0	.	-0.1	-4.8
Cc1cccc(N(C(=O)Cn2nnc(-c3ccc(F)cc3)n2)C(C(=O)NC(C)(C)C)c2ccncc2)c1 (stereo unspecified)	-7.9	-1.4%	-4.0	-12.6	-0.3	-7.9
Cc1nnc(SCC(=O)N2CCN(S(=O)(=O)c3ccccc3)CC2)n1Cc1ccccc1	0.1	2.2%	-0.3	4.9	-0.6	-8.6
O=C(O)COc1ccc2c3c(c(=O)oc2c1)CCCC3	-0.8	3.2%	1.8	-10.1	-0.2	-4.6
CCNC(=O)C1(C)CCCN(Cc2ccc(-n3ccnc3)cc2)C1 (stereo unspecified)	1.4	0.1%	-4.1	.	-0.2	-7.2
O=C(CCl)Nc1ccc(N=Nc2ccccc2)cc1	-8.5	-1.3%	-9.1	-7.3	0.4	-13.1
Cc1ccc(S(=O)(=O)NCc2ccc(C(=O)N3CCN(c4ccccn4)CC3)cc2)cc1	0.2	-0.7%	-1.2	8.8	-0.8	5.6
O=C(Cc1ccccc1)Nc1nc2ccccc2[nH]1	-0.1	-3.9%[38.3 µM]	0.4	-10.9	-0.3	-12.7
Cn1nc2c3cc(F)ccc3n(Cc3ccc(F)cc3)cc-2c1=O	-11.0	-0.9%	-6.4	8.0	0.4	-0.8
Cc1ccc(NCc2nnc(SCc3ccc(C#N)cc3)n2Cc2ccco2)c(C)c1	-18.0	-1.9%	-1.5	4.7	2.3	-17.0
OC(Cc1cccc(Br)c1)c1ncc(-c2cccc(C(F)(F)F)c2)[nH]1 (stereo unspecified)	-13.3	?	4.4	.	-0.4	-3.2
O=C1Nc2ccccc2O/C1=C\c1ccccc1	1.2	2.2%	-4.8	-3.4	0.3	0.7
Next part
SMILES	Six1-Eya2 inh	PINK1 expr mod	D2 ag	TRPML1 inh	TRPML1 ag	D2 potentiator
CCOC(=O)c1oc2cc(OC(C)=O)ccc2c(=O)c1-c1ccc(OC)c(OC)c1	1.5	2.1%	-4.0	9.9	0.7	2.1
Cc1cccc(CCNC(=O)C2CCCN(S(=O)(=O)c3ccc4c(c3)oc(=O)n4C)C2)c1 (stereo unspecified)	.	5.1%	.	27.3	-1.0	.
COc1cccc(CNc2ccc(N3CCC(C)CC3)cc2)c1OC	-71.8*	?	0.7	0.1	-0.7	-3.4
CCC(C)c1ccccc1N1CC(C(=O)NCCCn2nc(C)cc2C)CC1=O (stereo unspecified)	-3.8	-0.4%	8.7	-0.2	-0.7	-1.3
C[C@H](CO)N1C[C@H](C)[C@@H](CN(C)Cc2cccnc2)Oc2cc(-c3cccnc3)ccc2S1(=O)=O	6.9	-0.3%	-10.6	18.8	0.1	0.4
O=S(=O)(c1ccccc1)N1CCC(Oc2ccc(-n3cnnn3)cc2)CC1	-10.2	1.8%	5.6	-2.5	-0.3	-4.6
COC(=O)c1cn(NC(=O)Cc2ccccc2Br)c(=O)c2ccccc12	-8.9	-1.5%	-2.2	8.9	-0.1	-7.4
CC(=O)Nc1ccc(S(=O)(=O)N(Cc2ccco2)CC2CCCO2)cc1 (stereo unspecified)	4.1	0.7%	-3.4	2.0	-0.6	-0.9
COc1ccc(NC(=O)CSc2nc(N)c3cc4c(nc3n2)CCCC4)cc1	?	8.4%	5.0	-4.7	-0.5	3.3
